Screening data as filed in PubChem BioAssay.
Rce1 inhib: yeast Ras-converting enzyme inhibition; yeast membranes, quenched prenylated peptide cleavage fluorescence; calls only; Q03530; hit rate 0.27% among 290,000;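 active = fall in fluorescence gain of 50% or more versus controls, with final raw signal at or below 3038400; inconclusive = same 50% fall but final raw signal above 3038400; inactive = fall in fluorescence gain under 50%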;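 note: plate controls were neutral control wells for no effect and wells lacking membranes for full effect; tested at 10 µM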
eIF4H inh: inhibitors of RNA binding by human eIF4H. inhibition, % at 35 µM. Q15056. AID 2012. hit rate 0.94% among 290,000. eIF4H fluorescence polarization binding assay;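 active = 50% or more with normal probe brightness, or confirmed in later tests; inconclusive = above 50% with abnormal brightness, or retests that disagree; inactive = below 50% or failed in later tests; about a fifth of its hits are not listed in these tables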;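 note: calls also rest on retests at 20 µM and on dose response follow-up; 0% = protein and probe with vehicle and 100% = probe without protein; strong numbers were not always called active; many hits fall short of the cut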
UUG fidelity: alters start codon recognition fidelity in yeast | S. cerevisiae UUG-firefly luciferase reporter, luminescence/redox ratio | hit rate 0.13% among 350,000 | activity score, % at 18.7 µM;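 active = replicate mean at a twofold rise or more, about +100% in these data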;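 note: firefly luciferase made from a UUG start codon reports start codon fidelity; reporter light over untreated wells divided by growth signal over untreated wells; some hits fall short of that in this replicate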
MT1-MMP act inh: MT1-MMP (human) activation inhibition. HT1080 RFP-PRO-GFP cells, GFP/RFP ratio fluorescence, overnight; percent of plate control window, DMSO zero. P50281. hit rate 0.061% among 360,000. GFP/RFP ratio change, % at 20 µM;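 active = GFP/RFP ratio change of at least 30% with cell ATP level not reduced by more than half and red fluorescence within 50% of control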; note: strong numbers were not always called active
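Assay system: HT1080 cells carrying an RFP-PRO-GFP reporter | Dosing: Single dose of 20 µM compound, 1% DMSO final | Incubation: Cells overnight before dosing, compound overnight, 37 °C, 5% CO2 | Evaluation: GFP/RFP fluorescence ratio | Control set: DMSO and RFP-L50D-GFP cell wells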
PABP polyA inh: PABP-poly(A) binding inhibition. PABP-poly(A) RNA binding, fluorescence polarization. inhibition, % at 35 µM. P11940. hit rate 1% among 290,000. AID 2014;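 active = 50% or more with normal probe brightness, or confirmed in later tests; inconclusive = above 50% with abnormal brightness, or retests that disagree; inactive = below 50% or failed in later tests; about a fifth of its hits are not listed in these tables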;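 note: calls also rest on retests at 20 µM and on dose response follow-up; controls were probe without protein and protein plus probe with vehicle; some compounds called inactive have numbers as strong as hits; many hits fall short of the cut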
Target sequence (P11940 whole entry, looked up): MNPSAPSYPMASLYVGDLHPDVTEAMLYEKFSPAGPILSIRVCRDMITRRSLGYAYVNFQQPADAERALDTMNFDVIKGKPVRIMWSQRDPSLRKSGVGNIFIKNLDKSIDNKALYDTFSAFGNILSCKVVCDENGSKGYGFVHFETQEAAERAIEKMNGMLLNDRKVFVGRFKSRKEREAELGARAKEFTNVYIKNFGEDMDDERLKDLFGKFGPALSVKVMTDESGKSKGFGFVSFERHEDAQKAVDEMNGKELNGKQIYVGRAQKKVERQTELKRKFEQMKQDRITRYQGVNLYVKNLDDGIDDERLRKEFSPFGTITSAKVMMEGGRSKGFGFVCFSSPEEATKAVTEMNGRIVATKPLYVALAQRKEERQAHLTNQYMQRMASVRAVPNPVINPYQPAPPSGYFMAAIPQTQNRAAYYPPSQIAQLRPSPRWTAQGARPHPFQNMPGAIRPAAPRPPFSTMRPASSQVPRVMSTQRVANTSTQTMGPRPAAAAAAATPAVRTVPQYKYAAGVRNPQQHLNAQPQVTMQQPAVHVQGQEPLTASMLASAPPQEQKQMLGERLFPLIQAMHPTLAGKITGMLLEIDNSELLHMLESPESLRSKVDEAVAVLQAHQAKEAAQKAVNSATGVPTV
HIV Env fusion: blocks HIV Env-driven cell-cell fusion; HeLa-JRFL Env/CEM21 cell fusion, luciferase; AID 651610; hit rate 1.1% among 360,000; inhibition, % at 12.3 µM;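 active = mean replicate inhibition score of at least 50 and every replicate individually at or above 50; inconclusive = only one of the two criteria met; inactive = mean below 50 and not all replicates reaching 50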;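 note: 0% = plate neutral controls and 100% = maraviroc near 300 nM; one replicate is shown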
CSC inhib: blocks cancer stem cells; cancer stem cell-like cells viability, luminescence; inhibition, % at 7.5 µM; hit rate 1.1% among 300,000; AID 2717;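 active = mean at 75% or more and at least half the replicates too; inconclusive = mean and replicates disagree; tested in HMLE shEcad cells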;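 note: 0% = median of negative and 100% = median of positive control wells; the first replicate is given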
MT1-MMP act inh RFP: second read-out of MT1-MMP act inh, no call of its own (marks repeat the call); RFP signal change, %; measured here: RFP expression control read;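 0 = vehicle wells; hits needed this value within 50% of zero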
Numbers without * were called inactive; i = inactive; ? = inconclusive; . = no result given; & = joins results of further samples; [ ] = another dose, or the depositor's remark. Hits appear at their usual frequency. Share with any hit: about 2.9%.

SMILES	Rce1 inhib	eIF4H inh	UUG fidelity	MT1-MMP act inh	MT1-MMP act inh RFP	PABP polyA inh	HIV Env fusion	CSC inhib
COc1ccc(OC)c(N=C(N)N=C(N)N)c1	i	0	-25	0	2	-10	-4	.
CC(C)Cc1ccc(CN2CCCC(NC(=O)CCn3cnnn3)C2)cc1 (stereo unspecified)	.	9	-15	0	3	6	.	-6
COc1ccc(NC(=O)COc2cccc(C(F)(F)F)c2)cn1	i	.	-11	-9	7	.	-1	-6
COc1cccc(/C=N/NC(=O)CSc2ccccc2C)c1OC	i	0	.	7	4	16	4	2
O=S(=O)(NCCN1CCOCC1)c1cccs1	i	-5	7	-2	-1	-5	3	1
CC(C)(C)CC(C)(C)NC(=O)c1ccccc1	i	1	.	-3	-10	-2	15	5
Cc1ccc(S(=O)(=O)N2CCN(C(=O)c3cccc(F)c3)CC2)cc1	i	-10	-14	-5	-2	0	-14	20
CCOC(=O)N1CCN(C2CC(=O)N(c3ccc(C)cc3)C2=O)CC1 (stereo unspecified)	i	9	-11	-1	8	-3	.	-10
COc1ccc(C(=O)n2c(C)c(CCO)c(=O)n2C)cc1	i	1	.	3	1	1	-5	-9
CCN(CC(=O)Nc1ccccc1C(F)(F)F)C(=O)CN1C(=O)NC(C)(c2ccccc2)C1=O (stereo unspecified)	i	.	11	1	4	.	5	0
CCCCCCn1c(=O)c(Cc2ccccc2)c(O)c2ccccc21	i	17	.	-5	-4	11	43	.
Nc1nc(SCC(=O)NCc2ccccc2)n[nH]1	i	-2	-10	3	7	7	.	.
C[C@H]1CN([C@@H](C)CO)C(=O)c2cc(NC(=O)C3CCCCC3)ccc2O[C@H]1CN(C)CC1CCCCC1	.	.	-4&-1	0	3	.	21[16.7 µM]	-4
O=C(Cn1nc(-c2ccccc2)ccc1=O)Nc1ccc(NC(=O)c2ccccn2)cc1	.	-3	-10	-7	-12	2	16	6
CCCCC(=O)NC1=C(C(=O)OC)SCC1	i	-9	.	1	3	2	-16	12

Looked up above:
MT1-MMP act inh RFP with COc1ccc(OC)c(N=C(N)N=C(N)N)c1 : 2
MT1-MMP act inh with COc1ccc(NC(=O)COc2cccc(C(F)(F)F)c2)cn1 : -9
eIF4H inh with Nc1nc(SCC(=O)NCc2ccccc2)n[nH]1 : -2
HIV Env fusion with O=C(Cn1nc(-c2ccccc2)ccc1=O)Nc1ccc(NC(=O)c2ccccn2)cc1 : 16
CSC inhib with CCOC(=O)N1CCN(C2CC(=O)N(c3ccc(C)cc3)C2=O)CC1 (stereo unspecified) : -10

Continuation.
SMILES	Rce1 inhib	eIF4H inh	UUG fidelity	MT1-MMP act inh	MT1-MMP act inh RFP	PABP polyA inh	HIV Env fusion	CSC inhib
O=C(COC(=O)c1ccc(O)cc1)Nc1ccccc1-c1ccccc1	i	10	.	0	-6	12	31	22
COc1cccc(OCc2cc(/C=N/Nc3ccc(C(=O)O)cc3)ccc2OC)c1	i	16	-43	-7	-3	-5	3	-1
CCC(C)(C)NC(=O)CN(C(=O)c1csnn1)c1cccc2c1CCCC2	i	7	.	-1	3	-14	-54	-21
N#C/C(=C/c1ccc(-c2cccc([N+](=O)[O-])c2)o1)C(=O)Nc1nc(-c2cccs2)cs1	.	.	-26	4	4	.	8	.
Cc1ccc(-c2cc(Cc3ccccc3)c(=O)[nH]n2)cc1	i	4	9	1	-2	-2	-5	-13
COc1ccc(NC(=O)C2CCC(CNS(=O)(=O)c3cccs3)CC2)cc1 (stereo unspecified)	i	-7	.	-3	-1	3	?	-13
O=C(/C(C=Nc1cc2c(oc1=O)CCCC2=O)=C(\O)c1ccccc1)c1ccccc1	i	-3	.	-4	0	-4	-11	-4
CC(Oc1ccc(Cl)cc1Cl)C(=O)OCn1nnc2ccccc2c1=O (stereo unspecified)	i	3	-5	-8	-7	-4	-51	12
CCN(CCO)Cc1csc2cc(C)ccc12	i	-9	.	-3	-2	36	11	4
CCCCOC(=O)c1ccc(NC(=O)C(=O)NCc2ccccn2)cc1	i	3	-10	4	-4	-2	-11	-4
CCC1Oc2ccccc2C(=O)N(CC(=O)c2ccc3c(c2)OCCO3)C1=O (stereo unspecified)	i	.	-16	0	4	.	1	-22
CCOC(=O)C1CCCN(S(=O)(=O)c2ccc(Cl)nc2)C1 (stereo unspecified)	i	.	-14	-4	-2	.	-5	-9
Cc1ccc2nc(SCC(=O)Nc3cc([N+](=O)[O-])ccc3F)[nH]c2c1	i	-12	.	6	0	-10	-31	14
O=C(Nc1nnc([C@@H]2C[C@H](O)[C@@H](CO)O2)s1)Nc1ccccc1Oc1ccccc1	.	.	-2	1	3	.	-17	.
CCOC(=O)c1c(/N=C/C2=C(O)CCCC2=O)sc(C)c1C	i	?	.	-1	3	-4	-31	3

An excerpt of these results, with bars between the fields.
Molecule | Rce1 inhib | eIF4H inh | UUG fidelity | MT1-MMP act inh | MT1-MMP act inh RFP | PABP polyA inh | HIV Env fusion | CSC inhib
N#C/C(=C/c1ccc(-c2cccc([N+](=O)[O-])c2)o1)C(=O)Nc1nc(-c2cccs2)cs1 | . | . | -26 | 4 | 4 | . | 8 | .
Cc1ccc(-c2cc(Cc3ccccc3)c(=O)[nH]n2)cc1 | i | 4 | 9 | 1 | -2 | -2 | -5 | -13
COc1ccc(NC(=O)C2CCC(CNS(=O)(=O)c3cccs3)CC2)cc1 (stereo unspecified) | i | -7 | . | -3 | -1 | 3 | ? | -13
O=C(/C(C=Nc1cc2c(oc1=O)CCCC2=O)=C(\O)c1ccccc1)c1ccccc1 | i | -3 | . | -4 | 0 | -4 | -11 | -4

(continued)
SMILES	Rce1 inhib	eIF4H inh	UUG fidelity	MT1-MMP act inh	MT1-MMP act inh RFP	PABP polyA inh	HIV Env fusion	CSC inhib
CCc1nnc(NC(=O)c2cccs2)s1	i	-1	-3	-2	1	-1	-18	6
Cc1ccc(C)c(C(=O)CCC(=O)NNC(=O)c2cccs2)c1	.	.	1	-2	6	.	6	-3
CCc1ccc(OCc2ccc(C(=O)O)o2)cc1	i	3	-68	2	2	-5	0	3
CC(C)CN(C(=O)COC(=O)Cc1n[nH]c(=O)c2ccccc12)C1CCS(=O)(=O)C1 (stereo unspecified)	i	-1	0	10	7	5	-8	-13
CCOC(=O)c1c(C)[nH]c(C)c1C(=O)CSc1nnnn1-c1ccccc1	i	-11	-16	1	-2	-10	-70	15
COc1cc2c(cc1OC)-c1cc3ccc(OC)c(OC)c3c[n+]1CC2	.	.	-4	2	-9	.	-6	-1
CNc1nc(-c2ccc3c(c2)CCN3C(=O)c2ccccc2C)cs1	i	2	.	-1	-4	2	-88	1
CCOC1=C/C(=C/c2c(N)n3nc(-c4ccccc4)sc3nc2=O)C=CC1=O	i	41	.	-109	0	32	-5	.
Cc1ccc([N+](=O)[O-])cc1N(CC(=O)Nc1ccc(S(=O)(=O)Nc2cccc(C(F)(F)F)c2)cc1)S(C)(=O)=O	i	-1	0	-3	-14	4	.	100*
Cc1ccc(-n2c(-c3ccncc3)nnc2-c2ccco2)cc1	i	-2	.	-3	-1	0	42	2
O=C(N/N=C1/CC(c2ccccc2)Oc2ccccc21)C1CC1 (stereo unspecified)	i	5	.	2	1	-2	.	8
COc1ccc(Cl)cc1Nc1nc(Cl)nc(NCCO)n1	.	.	-10	-2	0	.	30	.
COCCN(C(=O)COC(=O)C1CCCCC1)c1c(N)n(Cc2ccccc2)c(=O)[nH]c1=O	.	.	-11	-1	3	.	-8	.
CCCCP(=O)(CCCC)CCP(=O)(c1ccccc1)c1ccccc1	i	-11	.	-3	4	-9	-35	.
Cc1cc2ccccn2c1C(=S)NC(=O)c1ccccc1	i	12	3	10	1	-2	-11	12
COc1ccc(CNC(=O)[C@H](C)NC(=O)N2CCn3c2nc2ccccc23)cc1	i	.	13	8	9	.	0	-13
Cc1[nH]c2ccccc2c1C(=O)COC(=O)Cn1c(C)nc2ccccc21	i	-2	.	-2	-5	10	20	3
c1ccc2c(c1)nc(Nc1ccc(N3CCCCC3)cc1)c1nncn12	i	7	.	1	0	-1	7	-12
CCc1nc(N2CCOCC2)c(C#N)c2c1COC(C)(C)C2	i	-2	17	-1	-1	7	.	-10
O=C(NC12CC3CC(CC(C3)C1)C2)C1CCCN1C(=O)NC1CCCCC1 (stereo unspecified)	.	-15	-8	2	5	5	19	-5
Cc1cccc(OCC(=O)Nc2ccc3oc(=O)ccc3c2)c1C	i	-4	-16	1	-2	6	12	16
Cn1c(=O)cc(N2CCc3ccccc32)[nH]c1=O	i	-2	-10	8	8	11	-11	-2
COc1ccccc1/C=C(\NC(=O)c1ccc(OC)c(OC)c1)C(=O)Nc1cccc([N+](=O)[O-])c1	i	-9	.	1	-3	2	3	-3
Cc1ccnc(N2C(=O)c3ccccc3C2Nc2cccc(C)c2C)c1 (stereo unspecified)	i	2	-18	0	1	-5	.	-4
CCOC(=O)C1(C)CCCCCN1C(=O)c1snnc1C (stereo unspecified)	.	.	-5	0	1	.	-44	.
CC(=O)Nc1cccc(NC(=O)CCn2cnc3cc(C)c(C)cc32)c1	i	-11	-11	2	0	-8	-27	-3
Cc1ccc(CSc2nc3ccncc3n2CC(=O)Nc2cc(C)cc(C)c2)cc1	i	-1	-20	0	-8	-1	-44	32
N#Cc1c(-c2ccccc2)nc(SCc2ccc(Cl)cc2)[nH]c1=O	i	5	-11	3	5	4	7	104*
COc1ccc(CC(N)c2csc(NC(=O)Nc3cc(OC)ccc3OC)n2)cc1 (stereo unspecified)	.	.	-20	-6	-2	.	-12	.
CCOC(=O)N1CCN(C(=O)CSC2=NS(=O)(=O)c3cc(F)ccc3N2)CC1	i	.	-5	1	2	.	-2	-4

Arranged by the number under MT1-MMP act inh (descending): some entries from above.
SMILES	Rce1 inhib	UUG fidelity	MT1-MMP act inh	MT1-MMP act inh RFP	HIV Env fusion
Cc1ccc2nc(SCC(=O)Nc3cc([N+](=O)[O-])ccc3F)[nH]c2c1	i	.	6	0	-31
N#Cc1c(-c2ccccc2)nc(SCc2ccc(Cl)cc2)[nH]c1=O	i	-11	3	5	7
O=C(NC12CC3CC(CC(C3)C1)C2)C1CCCN1C(=O)NC1CCCCC1 (stereo unspecified)	.	-8	2	5	19
Cc1ccc(-c2cc(Cc3ccccc3)c(=O)[nH]n2)cc1	i	9	1	-2	-5
CCC1Oc2ccccc2C(=O)N(CC(=O)c2ccc3c(c2)OCCO3)C1=O (stereo unspecified)	i	-16	0	4	1
Cc1[nH]c2ccccc2c1C(=O)COC(=O)Cn1c(C)nc2ccccc21	i	.	-2	-5	20
Cc1ccc(-n2c(-c3ccncc3)nnc2-c2ccco2)cc1	i	.	-3	-1	42

More results follow.
SMILES	Rce1 inhib	eIF4H inh	UUG fidelity	MT1-MMP act inh	MT1-MMP act inh RFP	PABP polyA inh	HIV Env fusion	CSC inhib
O=C(Nc1cc(Cl)ccc1-n1cncn1)c1ccc(F)c(S(=O)(=O)N2CCOCC2)c1	i	.	-17	0	3	.	-30	-10
CC(=O)c1c(C)[nH]c(C(=O)CN2CCN(S(=O)(=O)c3ccc(C(C)C)cc3)CC2)c1C	.	.	-9	-2	-22	.	-5	.
CN(Cc1ccccc1)Cc1ccccc1F	i	9	-1	0	3	21	-35	1
Cc1ccc(/C=C/C(=O)c2ccc([N+](=O)[O-])o2)cc1	i	.	.	.	.	.	-432	35
Cc1ccc(C(=O)N2CCC(n3nccc3NC(=O)C3CCOC3)CC2)cc1 (stereo unspecified)	i	9	-12	-1	-1	10	1	-3
CC(=O)C1=C(O)CCC1=NCCc1ccccc1	i	6	-8	16	1	-10	.	-5
